D2 PAM: human D2 receptor positive allosteric modulation | P14416 | DiscoveRx D2 beta-arrestin cells, luminescence, 90 min; 100% = 57 uM dopamine signal | potentiation, % (no concentration beside the values) | 0.23% of 360,000 active; active = potentiation of 50% or more; inconclusive = 30% to 50%; inactive = 30% or less;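 also: compound concentration not given in the record; tested on top of an EC20 dose of dopamine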
Target sequence (P14416 whole entry, looked up): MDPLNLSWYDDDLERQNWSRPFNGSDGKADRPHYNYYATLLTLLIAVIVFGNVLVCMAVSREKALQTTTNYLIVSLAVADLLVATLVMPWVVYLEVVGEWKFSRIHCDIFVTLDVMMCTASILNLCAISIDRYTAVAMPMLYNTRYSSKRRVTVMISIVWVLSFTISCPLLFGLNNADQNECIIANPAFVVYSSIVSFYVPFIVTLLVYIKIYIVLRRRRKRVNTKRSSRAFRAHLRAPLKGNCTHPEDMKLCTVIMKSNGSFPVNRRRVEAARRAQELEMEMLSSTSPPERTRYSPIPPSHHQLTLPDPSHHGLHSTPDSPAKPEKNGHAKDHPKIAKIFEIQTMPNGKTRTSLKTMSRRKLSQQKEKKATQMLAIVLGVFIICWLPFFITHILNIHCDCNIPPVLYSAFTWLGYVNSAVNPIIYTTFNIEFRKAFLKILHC
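PathHunter beta-arrestin assay in DiscoveRx D2 cells. Compounds were added with an EC20 of dopamine (50 nM final) for 90 min at 37 deg C. Luminescence was read 1 h after detection reagent, with 57 uM dopamine as the EC100 control.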
CtBP-E1A inh: inhibitors of CtBP/E1A interaction; AlphaScreen GST-E1A/His-CtBP binding, 1536-well; active compounds read low; control for the full effect not named in the record; AID 651724; activity change, % (concentration not given with the values); 0.49% of 340,000 active; in the data active means activity change below about -65%; inconclusive means about -30% to -65%; inactive means above about -30%; also: % is scaled to controls: 0 for no effect and ±100 for the full control effect
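Homogeneous bead-based format: GST-tagged E1A captured on glutathione donor beads, His-tagged CtBP on nickel acceptor beads; compounds precede bead addition by 2 h at 37 °C.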
Six1-Eya2 blk: blocks human Six1 binding to Eya2; AlphaScreen GST-Six1/His-Eya2 binding, biochemical; active compounds read low; control for the full effect not named in the record; 0.56% of 360,000 active; AID 651725; Q15475+O00167; activity change, % (no concentration beside the values); in the data active = activity change below about -65%; inconclusive = about -30% to -65%; inactive = above about -30%; also: % is scaled to controls: 0 for no effect and ±100 for the full control effect
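Homogeneous AlphaScreen proximity assay pairing GST-Six1 with His-tagged Eya2 (added as 5X mix: 250 nM and 500 nM) in 50 mM Tris pH 8.0, 300 mM NaCl, 1 mM TCEP. Glutathione donor and nickel acceptor beads; 1 h, 37 °C, dark.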
PINK1 expr mod: changes PINK1 expression; Potency, µM (top dose mostly 76.6 µM), for the others: at the top dose activation (PINK1 increase), most hits filed as activators; PINK1 immunofluorescence, high-content cytometry, 24 h; 0.2% of 410,000 active; active = well fitted activation curve with a large enough effect; inconclusive = small, poorly fitted or top-dose-only effect; inactive = flat fitted curve, though single readings scatter; cell line not stated here;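 also: potency is read from the fitted curve at half-maximal effect; % of control where 0% means no effect; nearly all actives have a fitted effect of over 65% in size; a mitochondrial uncoupler was the plate control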
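Measures PINK1 amount and localization on or inside mitochondria by immunofluorescence. Stable cells get compounds at 5 concentrations for 24 hours before fixation and staining; CCCP controls included.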
D2 ag: activates the human D2 dopamine receptor. activation, % (no concentration beside the values). DiscoveRx PathHunter D2 beta-arrestin, luminescence, 90 min; 100% = 57 uM dopamine signal. P14416. 0.084% of 360,000 active; in the data active = activation above about 40%; inconclusive = about 15% to 40%; inactive = below about 15%; also: compound concentration not given in the record; the text of the record calls up to 30% inactive
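DiscoveRx PathHunter D2 beta-arrestin cells (2,100/well) attached overnight, then compound-stimulated 90 min at 37 C in HBSS/10 mM HEPES/0.1% Tween-20 buffer; beta-galactosidase complementation read by luminescence after 1 h at ambient temperature. Dopamine 57 uM final (EC100) as control.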
TRPML1 ag: human mucolipin-1 channel agonism; TRPML1-expressing cells, Ca2+ dye fluorescence, FDSS; host cell line not named in the record; reference of the full effect not given here; AID 624414; activation, % (concentration not given with the values); 0.12% of 410,000 active; Q9GZU1; in the data active = activation above about 50%; inconclusive = about 30% to 50%; inactive = below about 30%; also: 0% is about no effect; the text of the record puts the active cut at 80%
Target sequence (Q9GZU1 whole entry, looked up): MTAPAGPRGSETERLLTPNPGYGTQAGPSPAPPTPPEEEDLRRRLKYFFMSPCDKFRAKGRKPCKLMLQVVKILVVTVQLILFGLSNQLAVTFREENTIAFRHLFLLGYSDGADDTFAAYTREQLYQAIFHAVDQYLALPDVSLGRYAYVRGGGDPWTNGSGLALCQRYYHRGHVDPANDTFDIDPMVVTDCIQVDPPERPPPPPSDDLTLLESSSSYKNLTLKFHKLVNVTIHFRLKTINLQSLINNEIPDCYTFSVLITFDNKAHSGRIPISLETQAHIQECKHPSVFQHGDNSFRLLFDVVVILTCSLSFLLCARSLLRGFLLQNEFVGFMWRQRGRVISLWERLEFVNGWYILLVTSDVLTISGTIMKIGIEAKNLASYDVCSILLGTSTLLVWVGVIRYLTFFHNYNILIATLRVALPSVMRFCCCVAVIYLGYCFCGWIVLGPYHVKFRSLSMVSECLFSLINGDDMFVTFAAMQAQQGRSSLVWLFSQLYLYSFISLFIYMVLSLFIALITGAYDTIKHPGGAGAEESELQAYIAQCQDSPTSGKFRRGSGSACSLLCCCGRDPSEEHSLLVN
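Tetracycline-induced TRPML1-DL cells are seeded and incubated overnight before loading with a no-wash Ca2+ dye and quencher. Agonist activity is taken from the 110 s fluorescence read following compound pin-transfer on an FDSS, before EC80 54-4 challenge.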
* = called active by the depositor; u = inconclusive; x = not tested or not shown; & = joins results of further samples; [ ] = dose if it differs, or a comment.

Second line of a record – D2 PAM, CtBP-E1A inh, Six1-Eya2 blk, PINK1 expr mod, D2 ag, TRPML1 ag
COc1ccccc1CNC(=O)c1ccc(CS(=O)Cc2cccc(Cl)c2)o1 (configuration not stated)
    -6.4, x, 0.0, 1.8%, 4.9, 1.3
CC(C)(C)CN1CCC(Oc2cccc(C(=O)N3CCNC(=O)C3(C)C)c2)CC1
    -13.2, 3.3, 5.3, 2.7%, -4.1, -0.1
Cc1ccccc1C(=O)N=c1ccn(-c2nc3ccccc3nc2NS(=O)(=O)c2ccccc2)cc1
    -12.6, x, -1.1, 3.8%, -6.0, 0.5
CCOc1ccc(C2CC(c3cccc(OC)c3)n3nc(N)nc3N2)cc1 (configuration not stated)
    -5.1, -6.5, -1.7, 0.9%, -3.9, 0.9
COCc1c(C(=O)OCc2nnc(-c3ccc([N+](=O)[O-])cc3)o2)oc2ccccc12
    4.0, 4.9, u, -3.7%, 10.3, 2.3
CC(=O)C(Sc1nc(N2CCOCC2)nc(N2CCOCC2)n1)C(=O)Nc1ccccc1 (configuration not stated)
    -19.1, 27.9, 19.8, -0.5%, -3.7, -0.4
O=C1CCCC2=C1C(c1ccccc1)NC(=S)N2 (configuration not stated)
    4.4, 3.5, 11.0, 3.0%, -4.2, 0.6
Cc1ccc(N2C(=O)C3CCCN3C2=S)cc1Cl (configuration not stated)
    -1.6, 2.2, 7.3, u, -0.7, 3.4
COc1ccc(NC(=O)C(NC(C)=O)C(=O)NCc2ccccc2Cl)cc1 (configuration not stated)
    -23.5, 1.4, -3.7, 2.4%, -2.9, -0.6
COC(=O)c1cc(CNC(=O)c2ccccc2Cl)ccc1OC
    6.7, 0.8, 1.7, 2.7%, -1.1, 0.0
CC(CC(=O)Nc1ccc(C(N)=O)cc1)c1ccccc1 (configuration not stated)
    -2.7, -6.5, 8.9, -0.4%, -2.4, 0.4
O=C(O)c1ccc(OCCOc2ccccc2)cc1
    10.3, x, -6.4, 3.6%, -8.0, 0.4
COc1ccccc1OCCCC(=O)Nc1ccc2c(c1)OCCO2
    -23.0, 2.4, 0.9, -0.2%, -1.9, -0.8
Fc1ccccc1CNCCC(Cc1ccccc1)c1ccc2c(c1)OCO2 (configuration not stated)
    -14.3, -3.9, -0.7, 1.8%, -4.5, -0.9
CC(C)(O)[C@@H]1CC(=O)[C@]2(C)[C@H](CC[C@@]3(C)[C@H](c4ccoc4)OC(=O)[C@H]4O[C@]432)[C@@]1(C)/C=C\C(=O)O
    -5.0, 4.7, 7.4, 1.5%, -0.8, -0.4
COc1ccc(C2CC(=O)Oc3cc(O)cc(O)c32)cc1 (configuration not stated)
    3.1, 4.6, -3.5, 1.7%, -2.8, -0.6
O=C(c1cn(-c2ccccc2)nc1-c1cccnc1)N1CCN(S(=O)(=O)c2ccc(Cl)cc2)CC1
    1.7, 5.4, -1.8, 2.4%, -1.2, 2.3
O=C(Nc1cccc(O)c1)c1c(O)c2ccccc2[nH]c1=O
    -0.1, 0.6, -1.4, 1.1%, 3.1, 0.0
C=CC1=CCN(S(=O)C(C)(C)C)[C@@H]1CCO (some centres not stated)
    x, 38.9, 32.9, -0.6%, 1.8, 0.2
C[C@H]1CN([C@@H](C)CO)C(=O)CCCn2cc(nn2)CO[C@@H]1CN(C)S(=O)(=O)c1ccc(-n2cccn2)cc1
    -5.1, 3.0, 6.6, -2.0%, -2.0, -0.4
COc1ccc(Nc2nnc(-c3ccc(O)cc3)c3ccccc23)cc1
    -15.7, -2.4, u, 1.8%, -2.9, -0.1
COCc1cc(C)n(CC(=O)NCC2CCCO2)c(=O)c1C#N (configuration not stated)
    0.9, 6.5, 0.2, 0.6%, -4.0, -0.2
CN(C)S(=O)(=O)CC12CCC(CC1=O)C2(C)C (configuration not stated)
    -5.0, 5.2, 3.0, 3.2%, -1.2, 0.4
CSc1ccc(NC(=O)NCc2cccnc2)cc1
    -7.0, -17.1, -9.0, -2.3%, -2.7, -1.1
CN(C(=O)COC(=O)CN1C(=O)C2CC=CCC2C1=O)c1ccccc1 (configuration not stated)
    -20.4, 6.1, -0.6, -6.4%, -3.8, -0.3
Cc1nc(-c2cccc(S(=O)(=O)N3CCCCCC3)c2)cs1
    -13.3, 1.0, -4.4, 0.4%, 0.8, -0.4
COc1ccccc1C1N(c2ccc(Cl)cc2)C(=O)C2CCCN21 (configuration not stated)
    2.3, 4.0, -1.6, 4.9%, -2.2, -0.1
O=C(NNC(=O)c1ccccc1Cl)c1ccc2c(c1)OCCO2
    3.9, x, -0.8, -0.3%, 5.7, -0.1
Cn1c(=O)[nH]c(=O)c2c1nc(SCC(=O)O)n2CCCc1ccccc1
    -5.4, x, -6.3, 0.4%, 2.3, 1.5
COc1ccc([C@@H]2[C@H]3CN(C(C)=O)CC=C3C(C#N)=C(N)C2(C#N)C#N)c2ccccc12
    -18.7, -6.7, -8.1, u, -8.6, -0.9

Overlap with the part before: 2 compounds; new compounds follow.
Second line of a record – D2 PAM, CtBP-E1A inh, Six1-Eya2 blk, PINK1 expr mod, D2 ag, TRPML1 ag
Cn1c(=O)[nH]c(=O)c2c1nc(SCC(=O)O)n2CCCc1ccccc1
    -5.4, x, -6.3, 0.4%, 2.3, 1.5
COc1ccc([C@@H]2[C@H]3CN(C(C)=O)CC=C3C(C#N)=C(N)C2(C#N)C#N)c2ccccc12
    -18.7, -6.7, -8.1, u, -8.6, -0.9
O=C(O)c1ccc(NC(=S)NC(=O)c2cncc(Br)c2)cc1
    -8.8, x, -4.3, 0.6%, -4.6, -0.5
COc1ccccc1N1CCN(CC(=O)c2c(N)n(C)c(=O)n(C)c2=O)CC1
    -15.1, 1.1, 1.8, -1.9%, 1.0, 1.1
COc1cccc(NC(=S)NC2CC(C)(C)NC(C)(C)C2)c1
    -6.3, -7.7, 2.8, 2.6%, -5.9, 0.3
Cc1cccc(-n2c(=O)c3c(n4cnnc24)-c2ccccc2CC32CCCCC2)c1
    -2.2, -8.9, -7.5, -0.3%, -2.1, 2.3
COc1ccc(Cl)cc1N(CC(=O)N/N=C/c1ccc(OC(C)C)cc1)S(=O)(=O)c1ccc(C)c([N+](=O)[O-])c1
    4.9, 1.5, -13.0, -0.9%, -1.0, -0.1
COC(=O)CSc1nnc(CCc2ccccc2)n1C
    -2.4, 3.1, 2.3, -0.6%, 0.0, -0.4
CCOC(=O)C1=C(N)N2C(=O)CSC2=C(C(=O)OC)C1
    -0.7, -1.5, -0.9, 2.3%, 0.6, -0.2
O=C1Nc2ccccc2C1(O)C/C(=N/O)c1ccccc1 (configuration not stated)
    -3.4, 0.0, -1.2, u, 1.6, -0.6
Cc1ccc(OCC(=O)NCc2cccs2)cc1
    3.4, 8.2, 0.9, x, -1.4, 0.0
CS(=O)(=O)c1ccc2nc(NC(=O)c3ccccc3)sc2c1
    1.4, 7.7, -1.4, 0.4%, 1.7, -0.5
CC(=O)N(C1=C(Cl)C(=O)c2ccccc2C1=O)c1ccc(C(=O)O)cc1
    -5.9, -13.9, -5.8, 0.1%, 8.7, 1.0
Cn1c2ccccc2c2cc(C(=O)NNS(=O)(=O)c3ccc(F)cc3)sc21
    -8.5, -14.2, -7.3, -0.4%, 2.1, 5.2
O=C1C2=C(SCCS2)C(=O)N1CCCO
    17.1, -18.4, -0.2, 2.7%, -1.1, 4.7
COc1ccc(-c2cc(C(=O)N3CCN(c4ccc(F)cc4)CC3)no2)cc1OC
    -0.8, -0.7, -10.1, 17.6%&4.2%, 2.1, 4.9&1.8
COc1cccc(OCc2cc(C(=O)N3CCN(C(=O)c4ccco4)CC3)no2)c1
    -1.2, 1.8, 1.4, -0.9%, 2.9, -1.1
O=C(Cn1cc(C(=O)C2CCCCC2)c2ccccc21)NCC1CCCO1 (configuration not stated)
    -4.6, 6.1, 7.0, 2.4%, -1.4, -0.5
Cc1nc2cc(-c3sccc3-n3cccc3)nn2c(C)c1C
    -14.3, -3.4, -0.6, 8.9%, -2.8, -0.2
Cc1c(CCC(=O)O)c(=O)oc2cc(OCc3cccc(F)c3)ccc12
    -5.5, -12.1, -11.7, 0.0%, -1.9, 0.7
COc1ccc(CCN2CC(C(=O)NCC(=O)Nc3ccc(F)c(F)c3)CC2=O)cc1OC (configuration not stated)
    -6.2, -12.8, -2.1, 0.6%, -0.7, 0.6
N#Cc1ccccc1OCC(=O)Nc1cc(S(=O)(=O)N2CCCCC2)ccc1N1CCOCC1
    -17.6, -6.1, -0.8, 0.6%, -3.3, 1.4
COC(=O)c1sc2ncn(CC(=O)NCCc3ccc(OC)c(OC)c3)c(=O)c2c1C
    -2.5, -6.1, 0.0, 3.7%, -1.1, 1.9
COc1cccc(C2C(C#N)=C(N)N(c3ncn[nH]3)C3=C2C(=O)CCC3)c1 (configuration not stated)
    -20.0, -4.3, 3.6, 1.2%, 4.0, 1.5
CC1CCN(c2ccc3nnc(CCC(=O)Nc4cc(F)ccc4F)n3n2)CC1
    -4.6, 5.4, 2.2, -0.2%, -3.2, -0.9
CN(C)CCCNc1nc2cc(-c3ccn[nH]3)sc2c(=O)n1C
    -7.4, -0.4, 0.1, -0.2%, -4.2, -0.3
CCOC(=O)N1CCN(C(=O)CSCC(=O)Nc2nc(-c3cccs3)cs2)CC1
    3.2, 10.5, -3.7, 17.8%[38.3 µM], 0.8, 1.6
CCOC(=O)C1=C[C@@H](CC)N(S(=O)(=O)c2ccc(C)cc2)[C@H]1c1cccc(Cl)c1
    7.0, 13.8, 2.2, -1.0%, 7.1, 0.1
NS(=O)(=O)c1ccc(NC(=O)c2ccc(S(=O)(=O)N3CCc4ccccc43)cc2)cc1
    -5.1, x, -4.5, 1.6%, -5.9, 0.1
Cc1cccn2c(NC(=O)c3cccs3)c(-c3ccccc3)nc12
    4.1, -5.1, 1.7, -2.1%, -1.9, 0.2
O=C(Cn1cnc(S(=O)(=O)N2CCCC2)c1)Nc1cccc(Br)c1
    -18.4, -11.2, 2.8, -1.3%&1.0%, 0.4, 0.1&-0.4
O=C(NCCN1CCN(Cc2ccccc2)CC1)C1CC(=O)N(C2CCCC2)C1 (configuration not stated)
    -20.3, 9.3, 2.0, x, -1.7, -0.6

Second line of a record – D2 PAM, CtBP-E1A inh, Six1-Eya2 blk, PINK1 expr mod, D2 ag, TRPML1 ag
CCOC(=O)N1CCC(NC(=O)CCc2c(C)nc3ncnn3c2C)CC1
    -6.0, -2.0, 0.0, 0.8%, -3.9, -1.2
CN(C)CCCN(C(=O)c1ccc(C(=O)c2ccccc2)cc1)c1nc2cc3c(cc2s1)OCCO3
    -16.4, -21.6, u, -1.9%, -4.0, 1.0
CCCCNC(=S)N(C)N=C1CCC(c2ccccc2)CC1 (configuration not stated)
    0.4, x, -10.0, 2.0%, -1.2, 2.4
Cc1ccccc1NC(=O)CSc1nnc2ccc(-c3cccnc3)nn12
    -60.8, u, -3.2, -2.3%, 4.6, 1.0
Cc1cc(N)ccc1-n1nc2ccccc2n1
    -2.2, 7.0, -3.4, 1.8%, -1.9, 1.4
CC1(C(=O)Nc2ccc3c(c2)OCCO3)CCN1C(=O)C1(c2ccccc2)CC1 (configuration not stated)
    -11.6, -3.0, -2.7, -1.0%, 0.7, -0.7
O=C(CN1CCCCCC1)Nc1ccc([N+](=O)[O-])cc1Cl
    -3.1, -2.6, -19.1, 1.5%, -0.3, 0.8
CCOc1ncccc1C(=O)Nc1nnc(C)s1
    -7.3, -3.6, 1.2, -0.6%, -5.6, 2.6
CO[C@@]12[C@@H]3N[C@@H]3CN1C1=C(C(=O)C(N)=C(C)C1=O)[C@@H]2COC(N)=O
    9.3, 5.9, u, -2.0%, 5.4, 0.0
